PINK1 modulator: PINK1 expression modulation; PINK1 immunofluorescence, high-content cytometry, 24 h; Potency, µM (titrated, usually from 76.6 µM), inactives show top-dose activation (PINK1 increase), usual class: activators; 0.2% of 410,000 active; active = well fitted activation curve with a large enough effect; inconclusive = small, poorly fitted or top-dose-only effect; inactive = flat fitted curve, though single readings scatter; cell line not stated here;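 also: potency is read from the fitted curve at half-maximal effect; % of control where 0% means no effect; nearly all actives have a fitted effect of over 65% in size; a mitochondrial uncoupler was the plate control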
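PINK1 protein, normally rapidly degraded, was detected by immunofluorescence after 24 hour compound treatment of a stable cell line. Titration data (5 concentrations) came from laser-scanning cytometry, with CCCP-treated wells as controls.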
Sfp PPTase inh: inhibitors of Bacillus subtilis Sfp phosphopantetheinyl transferase | AID 1490 | Q9F4F7 | Biochemical Sfp PPTase activity, qHTS | Potency, µM, for inactives: max response, negative = inhibition, usual class: inhibitors | 3.5% of 310,000 active; active = well fitted inhibition curve with a large enough effect; inconclusive = small, poorly fitted or top-dose-only effect, or another doubt; inactive = no such curve, though single readings can be large or run the other way;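 also: the enzyme is Sfp with the accession as filed and its product quenches rhodamine fluorescence; potency is read from the fitted curve at half-maximal effect; 0% = enzyme reaction without inhibitor and -100% = no enzyme wells; top concentration of the series not given in the record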
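After 15 min at room temperature with compound, 15 nM Sfp received 5 uM rhodamine-CoA plus 12.5 uM BHQ-2-ybbR (50 mM Hepes pH 7.6, 10 mM MgCl2). Rate came from the fluorescence difference over 30 min, ex 525/em 598 nm.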
ClpP mod: qHTS Assay for Activators of ClpP; 1.9% of 340,000 active; Potency, µM (titrated, usually from 57.5 µM), for inactives: at the top dose activity change, negative = active; purified B. subtilis ClpP, FRET peptide cleavage, 20 min; ATP-dependent Clp protease proteolytic subunit (Bacillus subtilis (strain 168)), P80244; AID 651965, 2013; active = well fitted falling curve with a large enough effect; inconclusive = small, poorly fitted or top-dose-only effect; inactive = no such curve, though single readings can be large or run the other way; also: potency is read from the fitted curve at half-maximal effect; the source files actives as falling curves though it sought activators and does not explain the sign; nearly all actives have a fitted effect of over 65% in size; many hits overshoot -100%
Target sequence (P80244 whole entry, looked up): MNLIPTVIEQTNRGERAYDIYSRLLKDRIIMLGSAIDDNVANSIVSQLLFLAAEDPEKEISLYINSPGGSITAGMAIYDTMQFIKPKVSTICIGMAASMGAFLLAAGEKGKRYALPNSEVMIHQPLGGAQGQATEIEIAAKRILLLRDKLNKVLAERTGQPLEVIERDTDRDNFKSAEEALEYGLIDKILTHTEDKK
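Buffer: 100 mM Tris/HCl pH8, 100 mM KCl, 0.05% low protease BSA, 2.5% glycerol, 0.01% Tween-20. ClpP 10 microg/mL final; 20 min RT; delta FRET normalized to ADEP and DMSO controls.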
TRPML1 ag: human mucolipin-1 channel agonism; Q9GZU1; TRPML1-expressing cells, Ca2+ dye fluorescence, FDSS; host cell line not named in the record; reference of the full effect not given here; activation, % (test concentration not listed); 0.12% of 410,000 active; AID 624414; in the data active = activation above about 50%; inconclusive = about 30% to 50%; inactive = below about 30%; also: 0% is about no effect; the text of the record puts the active cut at 80%
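Cells: TRPML1-DL, 1X Tet inducer, ~16 h at 37 degrees C/5% CO2. Dye: ABD Ca8 no-wash + quencher, 45-90 min RT. Read: 10 s baseline, compound add, 110 s agonist phase; 54-4 EC80 (4uM final), 110 s antagonist phase.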
TRPML1 inh: human mucolipin-1 channel inhibition; Q9GZU1; TRPML1-inducible cells, Ca2+ dye fluorescence, FDSS; stronger effect = lower value; inhibition of EC80 agonist-evoked calcium signal; activity change, negative = inhibition, % (test concentration not listed); 0.02% of 390,000 active; AID 624415; in the data active means activity change below about -50%; inconclusive means about -30% to -50%; inactive means above about -30%;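 also: stimulus is agonist 54-4 at its EC80 concentration; % is scaled to controls: 0 for no effect and ±100 for the full control effect; compound concentration not given in the record; the text of the record puts the active cut at -80%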
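Tet-induced TRPML1-DL cells loaded with Ca8 no-wash calcium dye were read kinetically on FDSS. Compound addition was followed by EC80 agonist 54-4 (4 uM final); inhibition was read over 110 s.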
TRPV1 potentiator: enhances activation of the human vanilloid receptor TRPV1. 0.02% of 320,000 active. potentiation, % at 8.33 µM. TRPV1-expressing cells, Fluo-8 calcium influx, capsaicin EC20 potentiation; host cell line not named in the record; control for the full effect not named in the record; active means potentiation above 80%; inconclusive means 30% to 80%; inactive means below 30%; also: 0% is about no effect
Target sequence (Q8NER1 whole entry, looked up): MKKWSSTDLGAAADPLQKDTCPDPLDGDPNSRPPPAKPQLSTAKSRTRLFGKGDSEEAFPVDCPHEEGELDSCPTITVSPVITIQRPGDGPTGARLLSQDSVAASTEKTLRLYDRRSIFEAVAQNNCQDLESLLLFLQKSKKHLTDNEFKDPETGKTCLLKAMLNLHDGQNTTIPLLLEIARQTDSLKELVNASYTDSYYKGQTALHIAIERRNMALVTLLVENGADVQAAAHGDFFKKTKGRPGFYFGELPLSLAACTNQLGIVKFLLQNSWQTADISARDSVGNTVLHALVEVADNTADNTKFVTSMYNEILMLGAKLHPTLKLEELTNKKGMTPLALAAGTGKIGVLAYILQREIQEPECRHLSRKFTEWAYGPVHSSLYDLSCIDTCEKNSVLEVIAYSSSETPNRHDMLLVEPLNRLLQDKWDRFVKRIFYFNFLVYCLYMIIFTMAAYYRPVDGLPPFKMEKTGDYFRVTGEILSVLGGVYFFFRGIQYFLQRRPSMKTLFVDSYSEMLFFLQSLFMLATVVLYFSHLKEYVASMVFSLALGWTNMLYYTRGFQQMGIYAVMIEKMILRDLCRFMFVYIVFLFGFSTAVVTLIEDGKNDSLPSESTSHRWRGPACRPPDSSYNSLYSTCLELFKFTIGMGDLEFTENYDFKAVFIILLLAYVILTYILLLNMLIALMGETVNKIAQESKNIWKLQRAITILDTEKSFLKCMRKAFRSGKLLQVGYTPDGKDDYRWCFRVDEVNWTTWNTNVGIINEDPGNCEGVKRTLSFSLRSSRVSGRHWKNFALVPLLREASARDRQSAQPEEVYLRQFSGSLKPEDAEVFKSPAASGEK
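Cells expressing TRPV1 were dye-loaded with Fluo-8 and read kinetically: 10 s baseline, 3 min after compound (agonist portion), then 2 min after EC20 capsaicin (allosteric enhancer portion). Calcium-bound dye fluorescence at 480/520 nm.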
Menin-MLL FL inh: menin-MLL binding inhibition, fluorescein peptide | FP activity change, % at 61.4 µM | 290,000 tested, under 10 active | Fluorescence polarization, fluorescein-MLL peptide displacement from menin; inconclusive = falling polarisation curve, or a change in total fluorescence; inactive = total fluorescence flat and polarisation flat or rising; no compound was filed as active; the % refers to the polarisation; negative = inhibition;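 also: % of control where 0% means no effect; inhibitors lower the polarisation; unlabelled MLL peptide was the positive control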
The depositor's hits bear a star; u = inconclusive; x = no result given; [ ] = another dose, or the depositor's remark.

entry	SMILES	PINK1 modulator	Sfp PPTase inh	ClpP mod	TRPML1 ag	TRPML1 inh	TRPV1 potentiator	Menin-MLL FL inh
1	COc1ccc(C(C)=O)cc1CSc1nnc(-c2ccncc2)o1	0.9%	-1%	-0.4%	-0.3	4	-8	7.5
2	O=C(CCc1nnc(CCCCc2ccccc2)o1)N1CCCC(O)C1 (stereo not given)	-0.1%	14%	-0.2%	0.5	24	2	-1.6
3	COC(=O)C1ON2OC(C(=O)OC)C(C(=O)OC)C2C1CC(C)=O (stereo not given)	1.5%[38.3 µM]	5%	-0.2%	0.7	25	-10	1.9
4	CCCNc1c(N)c(=O)c1=O	1.1%	13%	0.4%	1.5	16	8	1.0
5	CCCC1=[N+](CC(=O)c2ccc(C)cc2)CCn2cccc21	15%	4%	-16%	0.0	-25	10	14
6	Cc1ccc(-c2nnc(N)o2)cc1	-1.0%	8%	u	0.1	32	4	1.2
7	COC(=O)c1ccc(Oc2cc(C)nc(SC)n2)cc1	1.1%	10%	-1.9%	3.5	-6	-16	5.7
8	CCOC(=O)N1CCN(C(=O)/C(=C/c2cccc3ccccc23)NC(=O)c2ccc(OC)cc2)CC1	1.8%[38.3 µM]	-5%	-2.2%	0.8	-4	0	-2.4
9	CC(C)(C)NC(=O)C(c1ccncc1)N(C(=O)Cn1nnc(-c2ccc(F)cc2)n1)c1ccc(F)cc1 (stereo not given)	-1.9%	-2%	-1.9%	-0.5	34	-1	-2.3
10	CCC(NS(=O)(=O)c1ccc(OC)cc1)C(=O)O (stereo not given)	0.7%	-3%	-1.6%	-0.1	-1	9	1.5
11	CCOc1ccc(-c2c(C(=O)N/N=C(\C)c3ccncc3)nnn2-c2nonc2N)cc1	7.0%	1%	-1.5%	1.0	-1	-6	-3.6
12	NC1=NC(c2ccc(Cl)cc2)n2c(nc3ccccc32)N1 (stereo not given)	0.3%	11%	0.3%	-1.4	10	-2	3.1
13	COc1ccc(-n2nnc3c(SCc4ccccc4)ncnc32)cc1	5.5%	4%	-4.1%	1.8	26	-2	0.4
14	Cc1no[n+]([O-])c1COc1ccc(/C=N/n2nnnc2N)cc1	-0.4%	-1%	-5.0%	0.3	-11	-7	7.9
15	COc1ccc(NS(=O)(=O)c2cc(NC(=O)c3ccccc3)ccc2N2CCOCC2)cc1	4.5%	x	-0.1%	0.2	5	x	x
16	COc1ccc(CN2CCN(C3CCC3)CC2CCO)cc1C (stereo not given)	0.1%	2%	1.3%	-0.9	11	0	-5.6
17	O=C(NCc1ccco1)/C(=C\c1ccccc1)NC(=O)c1ccccc1	2.2%	10%	x	-0.7	21	14	5.3
18	CCOc1ccc2nc(SCC(=O)N(C)C3CCS(=O)(=O)C3)[nH]c2c1 (stereo not given)	-1.4%	-17%	-1.5%	-0.7	-9	24	-0.3
19	COc1ccc2oc(=O)c(-c3nc4ccccc4o3)cc2c1	-2.0%	-3%	u	-1.1	-10	-9	3.2
20	O=C1c2ccccc2C(c2nnnn2-c2ccc3c(c2)OCCO3)N1C1CC1 (stereo not given)	0.1%	x	-4.8%	0.0	x	x	x
21	Cc1ccc(NS(=O)(=O)c2cc([N+](=O)[O-])ccc2NNC(=S)Nc2cccc(Cl)c2)c(C)c1	u	7.9µM*	-0.7%	2.4	-10	-7	18
22	Cc1ccc(OCc2cc(C(=O)N3CCC(C(O)C(C)C)CC3)no2)cc1C (stereo not given)	-0.3%	0%	0.4%	-0.9	1	-10	-4.3
23	COc1ccc(CCNC(=S)NC2CCN(Cc3ccccc3)CC2)cc1OC	-0.4%	16%	x	-0.7	20	-30	3.9
24	COc1ccc(CNCCS(=O)(=O)NCc2ccccc2)cc1	-0.3%	x	1.9%	-1.4	-8	x	x
25	O=C(Nc1nnc(S(=O)(=O)N2CCN(c3ccc(F)cc3)CC2)s1)c1ccc(Cl)cc1	-0.4%	x	-0.9%	1.2	-12	x	x
26	CC(C)(C)c1ccc(C(=O)Nc2ccc(CC(=O)O)cc2)o1	4.3%[38.3 µM]	15%	0.1%	-0.6	1	-17	2.9
27	O=C(Cn1c(-c2ccccn2)nc2ccccc21)NCCN1CCOCC1	2.1%[38.3 µM]	15%	28µM*	-0.3	-9	2	-1.2
28	CN1C(C(=O)NC(C)(C)C)=CC(c2ccc3c(c2)OCO3)=NS1(=O)=O	-0.2%	x	-1.3%	0.2	0	x	x
29	Cc1c(NC(=O)CN2CCN(c3ccc(F)cc3)CC2)c(=O)n(-c2ccccc2)n1C	2.7%	17%	x	-0.6	40	-2	-0.2
30	COc1ccccc1CN1CC(C(=O)NCc2cc(C(C)C)no2)CCC1=O (stereo not given)	-0.7%	3%	0.3%	-0.6	-17	-14	x

Record cards, from the list above. Order of screens: PINK1 modulator | Sfp PPTase inh | ClpP mod | TRPML1 ag | TRPML1 inh | TRPV1 potentiator | Menin-MLL FL inh
`CN1C(C(=O)NC(C)(C)C)=CC(c2ccc3c(c2)OCO3)=NS1(=O)=O` as listed: -0.2% | x | -1.3% | 0.2 | 0 | x | x
`COc1ccc(NS(=O)(=O)c2cc(NC(=O)c3ccccc3)ccc2N2CCOCC2)cc1` as listed: 4.5% | x | -0.1% | 0.2 | 5 | x | x
`COc1ccc(-n2nnc3c(SCc4ccccc4)ncnc32)cc1` as listed: 5.5% | 4% | -4.1% | 1.8 | 26 | -2 | 0.4
`Cc1no[n+]([O-])c1COc1ccc(/C=N/n2nnnc2N)cc1` as listed: -0.4% | -1% | -5.0% | 0.3 | -11 | -7 | 7.9
`O=C(Nc1nnc(S(=O)(=O)N2CCN(c3ccc(F)cc3)CC2)s1)c1ccc(Cl)cc1` as listed: -0.4% | x | -0.9% | 1.2 | -12 | x | x

(more compounds)
entry	SMILES	PINK1 modulator	Sfp PPTase inh	ClpP mod	TRPML1 ag	TRPML1 inh	TRPV1 potentiator	Menin-MLL FL inh
31	CN(C)CC(C)(C)CNC(=O)CC1C(=O)NCCN1Cc1ccc(-c2ccccc2)cc1 (stereo not given)	-1.6%	20%	x	-0.1	-14	u	-17
32	CN(C)S(=O)(=O)c1cccc(NC(=O)C2CCN(S(=O)(=O)c3cccs3)CC2)c1	-1.5%	x	x	4.4	15	x	x
33	Cc1ccc2c(c1)c1cccc3c1n2CCN3CCC(N)=O	-0.6%	-3%	14µM*	0.8	5	-7	2.9
34	Cc1noc(C)c1COc1cccc(C(=O)N2CCc3ccccc32)c1	5.5%	-9%	x	2.6	-6	-18	-6.3
35	COCCc1nn2c(=O)cc(COC(=O)c3ccc(Br)cc3)nc2s1	-0.2%	x	-0.4%	1.5	13	x	x
36	Cc1ccc([C@@H]2CC(=O)[C@@H]3CN(S(=O)(=O)c4ccccc4C)[C@H](c4ccc(Cl)cc4)C[C@@H]3N2S(=O)(=O)c2ccc(C)cc2)cc1	0.4%	x	1.0%	0.2	33	x	x
37	Cc1nc2sc(C(c3ccco3)N3CCc4ccccc4C3)c(O)n2n1 (stereo not given)	0.8%[38.3 µM]	x	-2.7%	0.4	1	x	x
38	CCOC(=O)c1[nH]c(C)c(C(=O)OCCOc2cccc(C)c2)c1C	9.6%	-5%	-2.7%	4.5	-6	1	4.2
39	Cc1ccc(S(=O)(=O)NC(=O)Nc2ncc3c(n2)CC(c2ccco2)CC3=O)cc1 (stereo not given)	-1.3%	-9%	1.8%	0.7	22	1	2.0
40	O=C1/C(=C/c2ccccc2O)SC(=S)N1Cc1cccnc1	-0.2%	50µM*	1.6%	-0.1	15	0	9.0
41	CN(Cc1cccc(C(F)(F)F)c1)C(=O)[C@H]1O[C@@H](n2ccc(N)nc2=O)[C@H](O)[C@@H]1O	1.9%	x	1.3%	-0.7	-1	x	x
42	Cc1cccc(NC(=O)Nc2cnccn2)c1C	0.0%	11%	-14%	0.1	-15	-16	-0.5
43	O=C(CNS(=O)(=O)c1ccc(Cl)c(C(F)(F)F)c1)NC1CCCCCC1	5.1%	x	-1.5%	0.0	-2	-11	x
44	O=C(OCC(=O)N1CCCC1)c1cccc(Br)c1	2.0%	11%	x	-0.3	4	16	-2.5
45	O=C(O)c1cccc(CN2C(=O)S/C(=C/c3ccccc3[N+](=O)[O-])C2=O)c1	-0.7%	21%	x	1.5	2	1	3.9
46	O=c1cc(O)c2sc(Nc3cccc(C(F)(F)F)c3)nc2[nH]1	-0.5%	u	-2.9%	1.5	-5	-4	14
47	CCOC(=O)N1CCN(C(=O)Cn2ncc3c2-c2ccccc2OC3)CC1	0.1%	9%	-6.1%	0.0	-5	x	1.5
48	COc1ccc(N2C(=O)/C(=C/N(C)C)NC2=S)cc1	-0.3%	56µM*	x	-0.7	4	3	0.1
49	Cc1cc(SCn2nnc3ccccc3c2=O)nc2ccccc12	0.8%	-3%	-1.9%	1.6	21	-9	0.4
50	Cc1nn(-c2ccccc2)c(Cl)c1C1C(C#N)=C(N)Oc2c1c(C)nn2-c1ccccc1 (stereo not given)	-1.3%	0%	2.8%	0.4	3	17	1.1
51	COc1ccc(C2CC(=O)c3c([nH]c(C(=O)OC4CCC(C)CC4)c3C)C2)cc1OC (stereo not given)	0.9%	x	-3.0%	3.6	-12	x	x
52	C/C(N)=C(/C#N)C(=O)COC(=O)C1=NN(c2ccccc2)C(=O)CC1	-3.0%	25%	0.1%	1.0	-14	7	0.4
53	COc1ccc2[nH]c3c(NCCCN4CCCC4=O)ncnc3c2c1	-0.2%[38.3 µM]	4%	u	2.3	41	4	1.8
54	NS(=O)(=O)c1ccc(CCNC(=O)c2ccc(CS(=O)(=O)c3ccc(Br)cc3)o2)cc1	0.8%	23%	-13%	-0.1	1	7	0.4
55	O=C1CC(c2ccc3c(c2)OCCO3)Oc2ccc([N+](=O)[O-])cc21 (stereo not given)	-1.4%	4%	-1.0%	0.8	-22	u	2.9
56	CC(C)CNC(=O)C1(C)CCCN1C(=O)CCc1cccs1 (stereo not given)	2.5%	x	0.5%	-0.5	x	x	x
57	CCC(C)(C)NC(=O)C(c1ccccn1)N(C(=O)c1csnn1)c1ccc(C)cc1 (stereo not given)	0.7%	17%	x	-0.2	9	-15	3.1
